Bead autofluor = counter-screen for toxin protease inhibitors: compound fluorescence | compound autofluorescence counterscreen, microsphere flow cytometry; stronger effect = higher value | fluorescence intensity (no concentration beside the values) | actives 3.1% (n = 360,000) | AID 624483;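 active = at least 3 SD above the mean of all compounds, about 16000 in these data; inconclusive = too few beads counted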;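 note: 100 nL of 1 mM stock went into each well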
Sa RN4220 lethal = S. aureus RN4220 growth inhibition; OD600, 16 h; inhibition, % (concentration not given with the values); actives 0.33% (n = 330,000); AID 1259311;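 active = z-score of -3 or lower and OD600 up to 0.18 on both plates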;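 note: plate controls were untreated cells for no effect and reference antibiotic for full effect; stock transfer was 100 nL into about 80 µL; one replicate is shown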
Mtb hypoxia inh = inhibitors of hypoxia-regulated fluorescent reporter in Mycobacterium tuberculosis. M. tuberculosis hypoxia-regulated fluorescent reporter, fluorescence. fluorescence inhibition, % (no concentration beside the values). actives 0.1% (n = 300,000). AID 1159583;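 active = 35 to 45% if threefold the growth effect, above 45% if 1.5-fold the growth effect; inactive = the rest, general growth blockers included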;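 note: wells of about 50 µL received 100 nL stock; 0% = vehicle wells and 100% = reference inhibitor wells; whole bacteria with a GFP reporter of the hypoxia response; strong numbers were not always called active; many hits fall short of the cut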
PrP 5UTR inh = suppresses PrP 5' UTR mRNA reporter expression. cell-based PrP 5' UTR mRNA reporter, plate reader. inhibition, % (concentration not given with the values). actives 0.35% (n = 340,000). AID 488862;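 active = every replicate at 50% or more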;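 note: 0 = median of the neutral control wells; tested in H4 reporter cells; numbers are from one replicate; inactives centre near -14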
BJeLR lethal = kills HRASV12-expressing BJeLR cells; AID 1554; inhibition, % (test concentration not listed); BJeLR (HRASV12) viability, CellTiter-Glo ATP luminescence, 48 h; reference of the scale not given here; actives 0.17% (n = 300,000);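 active = replicate mean above 50%; inconclusive = above 50% but judged a plate artefact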;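 note: 50 nL library stock added to about 25 µL; numbers are from one replicate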
Sa ugtP lethal = compounds lethal to S. aureus RN4220 ugtP deletion mutant. OD600 growth, 16 h; some inactives read as strong as hits. growth inhibition, % (concentration not given with the values). actives 0.54% (n = 330,000). AID 1259309;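 active = z-score under -3 and OD600 up to 0.15 on both plates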;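 note: plate controls were untreated wells for no effect and antibiotic for full effect; wells of about 80 µL received 100 nL stock; the first replicate is given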
Mtb hypoxia inh growth = further read-out of Mtb hypoxia inh, marked with its call; growth inhibition, %; measured here: M. tuberculosis growth (absorbance);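 0% = vehicle and 100% = reference antibiotic; read after six days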
Active calls of the source: *; ? = inconclusive; . = no result given.

#1 O=S(=O)(c1ccc(NC(=S)NN=C(Cc2ccccc2)Cc2ccccc2)cc1)N1CCOCC1
#2 CC(C)COc1nc2ccccc2c(=O)n1OCC(=O)O
#3 Cn1c(=O)c(C(=O)NNC(=O)c2ccc(Br)cc2)c(O)c2ccccc21
#4 O=Cc1cnc(N2CCN(Cc3ccccc3)CC2)s1
#5 O=C(COC(=O)c1cccc(C(F)(F)F)c1)NCc1ccc(Cl)cc1
#6 O=C(Cc1cccc(NC(=O)C2CCN(C(=O)C3CCCCC3)CC2)c1)Nc1cccc(C(=O)N2CCCCC2)c1
#7 CC(=O)Nc1ccc(NC(=O)COC(=O)c2ccccc2SCC(=O)N2CCCC2)cc1
#8 O=C1c2cccc3cccc(c23)C(=O)N1c1ccccc1Cl
screen / no.	1	2	3	4	5	6	7	8
Mtb hypoxia inh growth	4.5	5.2	14.1	-2.4	.	3.8	1.0	8.5
BJeLR lethal	3.3	-5.3	8.5	-0.3	7.4	.	-2.1	-0.2
Mtb hypoxia inh	1.9	2.9	12.5	8.4	.	1.9	-4.1	7.5
Sa RN4220 lethal	12.8	-8.5	97.9*	6.7	.	1.8	-0.1	2.2
Sa ugtP lethal	2.2	-3.6	99.7*	2.0	.	10.1	4.8	8.5
Bead autofluor	4231	3236	5633	4464	10019	2942	.	3983
PrP 5UTR inh	-21.5	-16.0	-19.7	-32.7	-9.6	-26.6	-16.2	-5.3

Profiles as entered above. Values in the order: Mtb hypoxia inh growth	BJeLR lethal	Mtb hypoxia inh	Sa RN4220 lethal	Sa ugtP lethal	Bead autofluor	PrP 5UTR inh
Record of CC(=O)Nc1ccc(NC(=O)COC(=O)c2ccccc2SCC(=O)N2CCCC2)cc1 : 1.0	-2.1	-4.1	-0.1	4.8	.	-16.2
Record of O=C(COC(=O)c1cccc(C(F)(F)F)c1)NCc1ccc(Cl)cc1 : .	7.4	.	.	.	10019	-9.6
Record of CC(C)COc1nc2ccccc2c(=O)n1OCC(=O)O : 5.2	-5.3	2.9	-8.5	-3.6	3236	-16.0

Carrying on.
#9 CN(CC(=O)NC1CCN(Cc2ccccc2)CC1)S(=O)(=O)c1ccc2c(c1)c(=O)n(C)c(=O)n2C
#10 O=C1C2CCN(CC2)C1Cc1ccc(OCc2ccccc2)cc1 (configuration not stated)
#11 O=C(Nc1ccccc1Cl)c1ccc2ccccc2c1
#12 O=[N+]([O-])c1cc(C=NN2CCN(Cc3ccccc3)CC2)ccc1Cl
#13 CCOC(=O)/C=C1\CC(=O)Nc2cc(C)c(C)cc2N1
#14 C=C(C)C1CC=C(C)/C(=N/NC(=O)COc2ccccc2Cl)C1 (configuration not stated)
#15 CCOc1ccc(-c2c(C(=O)N/N=C/c3ccc(C)o3)nnn2-c2nonc2N)cc1
#16 Cc1ccc(N=Nc2c(O)[nH]c3ccc(F)cc23)cc1
screen / no.	9	10	11	12	13	14	15	16
Mtb hypoxia inh growth	0.7	2.0	0.0	7.9	4.3	.	.	10.9
BJeLR lethal	-13.4	3.4	1.8	.	12.3	8.7	-1.2	5.2
Mtb hypoxia inh	-0.1	3.9	-6.2	0.8	8.0	.	.	9.7
Sa RN4220 lethal	2.3	4.0	3.0	-1.1	2.4	.	.	-1.8
Sa ugtP lethal	2.5	-4.9	4.0	4.7	1.8	.	.	-18.5
Bead autofluor	3344	4277	3089	.	20731*	2943	4140	3835
PrP 5UTR inh	30.5	-4.3	-12.5	.	-28.3	-6.7	0.4	-81.7

#17 O=C(O)c1ccc(C=NNc2nnnn2-c2ccccc2)cc1
#18 CN1CCN(c2nc(-c3ccccc3)nc(-c3ccc(F)cc3)c2C#N)CC1
#19 O=C1N(Cc2cccnc2)C[C@@H]2C[C@@H](c3cccc(Oc4ccccc4)c3)N3CCC[C@@]123
#20 CN(C)CCCn1c(N)c(C#N)c2nc3ccccc3nc21
#21 COc1ccc(-c2n[nH]c(C)c2-c2ccc(Cl)cc2)c(O)c1
#22 Cn1c2ccccc2c2cc(/C=N/NC(=O)c3cc(O)cc(O)c3)ccc21
#23 CC(Oc1ccccc1)c1ccnc2nc(N3CCOCC3)nn12 (configuration not stated)
#24 COc1cc(NC(=O)CSc2nnc3c(n2)[nH]c2ccc(S(=O)(=O)NC(C)C)cc23)cc(OC)c1OC
screen / no.	17	18	19	20	21	22	23	24
Mtb hypoxia inh growth	3.6	-1.5	3.9	-7.4	13.6	.	7.4	8.1
BJeLR lethal	.	-11.8	1.4	-1.7	-9.9	-9.1	3.4	-2.9
Mtb hypoxia inh	1.3	0.1	0.5	-18.2	7.0	.	-4.7	0.3
Sa RN4220 lethal	-0.1	-6.9	3.7	-0.4	-22.4	.	2.3	0.4
Sa ugtP lethal	-4.4	-5.8	11.5	-4.0	-12.1	.	5.5	-2.8
Bead autofluor	.	4150	7964	4594	3249	4848	2389	3707
PrP 5UTR inh	.	-13.3	-27.5	-20.5	-11.6	-14.6	-15.3	-11.1

#25 CCCCCCCCCc1nc2sc3c(c2c(=O)n1NC(=O)c1ccc([N+](=O)[O-])cc1)CC(C)(C)OC3
#26 CCCNC(=O)c1cccc(Br)c1
#27 O=c1nc2ccccc2c2n1CC(CN1CCN(c3ccc(F)cc3)CC1)N2 (configuration not stated)
#28 Cc1cc(C)cc(OCC(O)CN2CC(C)OC(C)C2)c1 (configuration not stated)
#29 Fc1ccc(CNCCc2ccccc2)cc1
#30 CN(C)c1ccc(C=NNC(=O)CN2CCCCC2)cc1Br
#31 CC(C)(C)c1ccc(C2(C)NC(=O)N(CC(=O)c3ccc[nH]3)C2=O)cc1 (configuration not stated)
#32 O=C(Oc1cc(Cl)cc(Cl)c1)c1cnc2n(c1=O)CCS2
screen / no.	25	26	27	28	29	30	31	32
Mtb hypoxia inh growth	7.4	12.9	.	-1.5	8.1	-5.5	8.6	9.7
BJeLR lethal	3.6	-2.0	3.7	-0.6	0.2	.	1.0	4.6
Mtb hypoxia inh	5.0	-3.4	.	8.3	4.7	-0.1	6.1	2.5
Sa RN4220 lethal	33.5	-1.5	.	0.8	7.9	2.4	9.0	1.7
Sa ugtP lethal	66.4	-3.0	.	6.7	5.4	0.8	2.0	3.4
Bead autofluor	2394	3432	2809	3034	4782	.	7143	4194
PrP 5UTR inh	1.1	-16.0	-41.8	-28.0	-15.3	.	-16.3	-33.9

#33 COC(=O)Cn1c(N)[n+](Cc2ccccc2)c2ccccc21
#34 Cc1noc(C)c1COc1cccc(C(=O)OC(C)C(=O)Nc2ccc3c(c2)OCO3)c1 (configuration not stated)
#35 CCCN1C(=O)c2ccc(C(=O)NC3CCCCC3)cc2C1=O
#36 CNC(=O)CCc1nc(-c2ccc(C(C)(C)C)cc2)no1
#37 O=C(CN1CCN(C(=O)C2CCCO2)CC1)Nc1c(Cl)cccc1Cl (configuration not stated)
#38 CC(=O)C(Sc1ccc2nnc(-c3ccc(F)cc3)n2n1)C(C)=O
#39 Cc1cc(Cl)ccc1NC(=S)N1CCOCC1
#40 CCN(c1ccccc1)S(=O)(=O)c1ccc(OC)c(NC(=O)C2CC(=O)N(Cc3ccccc3)C2)c1 (configuration not stated)
screen / no.	33	34	35	36	37	38	39	40
Mtb hypoxia inh growth	2.2	2.8	11.4	.	7.3	10.4	4.9	-0.7
BJeLR lethal	1.1	21.6	-3.8	6.7	13.3	5.2	-2.5	-4.7
Mtb hypoxia inh	5.0	7.3	7.2	.	7.6	1.2	16.8	-6.9
Sa RN4220 lethal	5.8	-2.9	4.4	4.6	1.5	2.6	4.3	11.0
Sa ugtP lethal	-0.2	3.0	-6.6	1.2	1.8	8.7	2.4	15.0
Bead autofluor	3701	19670*	3618	2769	5415	5863	2499	4694
PrP 5UTR inh	-9.2	-39.6	-13.7	-7.7	-7.5	-10.5	-0.1	-38.1

#41 CCN(CC)CCCN(Cc1cc2cc3c(cc2[nH]c1=O)OCO3)C(=S)NCc1ccco1
#42 CC1CCCCC1NC(=O)c1ccc(-n2cncn2)c([N+](=O)[O-])c1 (configuration not stated)
#43 COCC(C)n1c(COc2ccccc2F)nnc1SCC(=O)Nc1oc(C)c2c(C)n[nH]c(=O)c12 (configuration not stated)
#44 Cc1cc(-c2ccccc2)nc(SCc2ccc(C(=O)O)o2)n1
#45 Cc1cc(C=NCCCO)c(C)n1-c1cc(Cl)ccc1Cl
#46 CC(CCc1ccccc1)NC(=O)COC(=O)c1ccc(NC(N)=O)cc1 (configuration not stated)
#47 COc1ccc(OC)c(NC(=O)C2CCCNC2=O)c1 (configuration not stated)
#48 O=C(NNC(=S)NCc1ccccc1)c1cccc([N+](=O)[O-])c1
screen / no.	41	42	43	44	45	46	47	48
Mtb hypoxia inh growth	2.9	6.9	3.9	.	17.7	3.7	2.7	15.4
BJeLR lethal	5.0	4.0	0.3	-8.7	-7.7	-1.4	-2.7	-2.8
Mtb hypoxia inh	6.2	-6.4	-2.1	.	6.9	-0.8	-0.8	0.4
Sa RN4220 lethal	3.7	-0.8	-0.4	3.9	-3.5	-0.1	1.8	4.8
Sa ugtP lethal	-1.4	1.8	-0.6	7.8	18.3	6.1	-2.4	2.7
Bead autofluor	5259	.	?	4797	4517	3794	9029	3175
PrP 5UTR inh	-10.8	-14.7	0.0	-6.6	-14.1	-0.4	-0.1	-21.2

Some of the entries so far, tab-delimited:
nr	Molecule	Mtb hypoxia inh growth	BJeLR lethal	Mtb hypoxia inh	Sa RN4220 lethal	Sa ugtP lethal	Bead autofluor	PrP 5UTR inh
26	CCCNC(=O)c1cccc(Br)c1	12.9	-2.0	-3.4	-1.5	-3.0	3432	-16.0
43	COCC(C)n1c(COc2ccccc2F)nnc1SCC(=O)Nc1oc(C)c2c(C)n[nH]c(=O)c12 (configuration not stated)	3.9	0.3	-2.1	-0.4	-0.6	?	0.0

Other compounds follow:
#49 O=C(COC(=O)c1ccc([N+](=O)[O-])s1)NCc1ccc(F)cc1
#50 Clc1ccc(-c2nn3cnnc3s2)c(Cl)c1
#51 O=C(Nc1nc2ccccc2s1)C1CC(=O)N(c2ccc(Br)cc2)C1 (configuration not stated)
#52 O=C(Cc1n[nH]c(=O)c2ccccc12)OCc1c(Cl)cccc1Cl
#53 COc1ccc(CNC(=O)CN2CCN(S(=O)(=O)c3c(C)c(C)cc(C)c3C)CC2)cc1OC
#54 CCOC(=O)C1CCN(C(=O)Cn2cnc3sc(C)c(S(=O)(=O)N4CCOCC4)c3c2=O)CC1
#55 CCOC(=O)Cn1c(Br)nc2c1c(=O)[nH]c(=O)n2C
#56 COC(=O)Cn1c(=NC(=O)c2cc(OC)c(OC)c(OC)c2)sc2cc(OC)ccc21
screen / no.	49	50	51	52	53	54	55	56
Mtb hypoxia inh growth	0.6	-0.8	8.6	-0.3	4.8	-1.3	2.0	.
BJeLR lethal	6.7	1.2	-5.1	8.5	.	-8.2	10.1	-23.0
Mtb hypoxia inh	6.5	7.2	11.4	17.9	14.0	-5.0	6.4	.
Sa RN4220 lethal	22.1	1.3	6.4	4.2	7.5	-1.7	-0.1	3.3
Sa ugtP lethal	16.6	-3.9	-13.8	10.5	2.2	3.1	-4.1	2.8
Bead autofluor	11217	4085	9207	3571	4082	5449	10308	1961
PrP 5UTR inh	-27.2	-6.4	-24.6	8.6	-11.4	-8.0	-11.3	-5.2

#57 CC1=CC2=NC(=O)/C(=C\c3cc(C)n(-c4ccccc4)c3C)C(=N)N2O1
#58 COc1ccc(C(=O)NCc2cccc(Cl)c2)cc1S(=O)(=O)N1CCOCC1
#59 CC(=NN=C1NC(=O)C(CC(=O)NCc2ccccc2)S1)C(C)C (configuration not stated)
#60 O=C(O)Cn1ncc2c1-c1ccoc1CC2
#61 CC(=O)N1c2ccccc2N2C(c3c(C)c(C)cc(C)c3C)=NON12
#62 COc1ccc2oc(C(=O)OCC(=O)NC(=O)NC(C)C)c(C)c2c1
#63 COc1ccc(Nc2nc(Nc3ccc(OC)cc3)nc(SC3=NCCS3)n2)cc1
#64 O=C1NCCC12C(=O)Nc1ccccc12 (configuration not stated)
screen / no.	57	58	59	60	61	62	63	64
Mtb hypoxia inh growth	-1.7	2.5	-2.4	11.3	2.9	5.6	4.6	.
BJeLR lethal	4.6	.	.	-6.8	.	0.3	-2.3	-4.6
Mtb hypoxia inh	6.7	9.3	-1.4	3.7	-2.1	15.0	7.8	.
Sa RN4220 lethal	2.3	3.9	2.8	-8.1	-2.0	5.5	6.0	4.0
Sa ugtP lethal	4.4	5.8	2.7	-1.0	0.1	-3.8	1.9	-6.1
Bead autofluor	9178	6747	.	5476	4542	10713	4214	5441
PrP 5UTR inh	-1.4	-10.2	.	-2.8	-18.2	-28.3	5.1	-14.2

From PubChem

Random draw from the library. About 4% of those tested had a hit in this group.
